High-throughput results (PubChem BioAssay)
Marburg entry inh: inhibitors of Marburg virus binding or cell entry. Marburg virus pseudotyped entry inhibition, cell reporter; control for the full effect not named in the record; about a third of the inactives were read at about 46 µM. Potency, µM (highest dose often 37.8 µM), without a hit: at the top dose activity change, negative = inhibition, actives largely listed as inhibitors. 300,000 tested, 1.8% active. AID 540276; active = well fitted inhibition curve with a large enough effect; inconclusive = small, poorly fitted or top-dose-only effect, or effect the other way; inactive = flat fitted curve, though single readings scatter; tested in HEK293 cells; about a fifth of its hits are not listed in these tables; also: % is scaled to controls: 0 for no effect and ±100 for the full control effect; luciferase read-out
2A StopGo: lowers the luciferase signal of an FMDV 2A StopGo reporter | human cells with a luciferase reporter of 2A StopGo recoding; control for the full effect not named in the record | 410,000 tested, 1.2% active | AID 1159524 | Potency, µM (doses to about 57.9 µM), for inactives: at the top dose signal change, negative = less light; active = well fitted falling curve with a large enough effect; inconclusive = small, poorly fitted or top-dose-only effect; inactive = no such curve, though single readings can be large or run the other way; tested in HEK293T cells; also: % is scaled to controls: 0 for no effect and ±100 for the full control effect; nearly all actives have a fitted effect of over 45% in size; luciferase light after 4 h
LASV entry inh: inhibitors of Lassa virus binding or cell entry. Potency, µM (top dose mostly 37.9 µM), inactives show at the top dose activity change, negative = inhibition, usual class: inhibitors. AID 540256. 300,000 tested, 1.2% active. Lassa virus pseudotype entry inhibition, cell reporter; control for the full effect not named in the record; active means well fitted inhibition curve with a large enough effect; inconclusive means small, poorly fitted or top-dose-only effect, or effect the other way; inactive means flat fitted curve, though single readings scatter; tested in HEK293 cells; also: % is scaled to controls: 0 for no effect and ±100 for the full control effect; nearly all actives have a fitted effect of over 50% in size; luciferase read-out
RE007 growth inh: less growth of the S. pombe RE007 Vpr strain. S. pombe RE007 Vpr strain, BacTiter-Glo ATP luminescence, 24 h; control for the full effect not named in the record. Potency, µM (highest dose often 92.2 µM), for the others: at the highest dose activity change, negative = less growth. 360,000 tested, 0.21% active. AID 651644; active = well fitted falling curve with a large enough effect; inconclusive = small, poorly fitted or top-dose-only effect; inactive = no such curve, though single readings can be large or run the other way;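 also: % is scaled to controls: 0 for no effect and ±100 for the full control effect; nearly all actives have a fitted effect of over 50% in size; the assay follows cell death caused by Vpr and the record does not say whether a fall means rescue or toxicity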
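Fission yeast strain RE007, carrying one chromosomally integrated HIV-1 vpr copy, was seeded at OD 0.01 in PMG+AL medium with 23 nL pinned compound. After 24 h at 30 °C and 99% humidity, viability was read by BacTiter-Glo luminescence.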
SARS PLP yeast: SARS-CoV PLP inhibition in yeast | S. cerevisiae expressing SARS-CoV PLpro, growth rescue; control for the full effect not named in the record | Potency, µM (highest dose often 32.9 µM), inactives show top-dose activity, positive = growth rescue | 330,000 tested, 0.19% active; also: 0% is about no effect; nearly all actives have a fitted effect of over 55% in size; growth read by luminescence after 48 h
Cruzain Triton: inhibitors of Trypanosoma cruzi cruzain with detergent. P25779. purified cruzain, Z-FR-AMC fluorescence, 0.01% Triton. Potency, µM, without a hit: max response, negative = inhibition, actives largely listed as inhibitors. 200,000 tested, 0.43% active. AID 1478; active = well fitted curve in the direction sought with a large enough effect; inconclusive = small, poorly fitted or top-dose-only effect, or another doubt; inactive = no such curve, though single readings can be large; an effect the other way counts as inactive or inconclusive;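 also: plate controls were neutral wells for no effect and buffer without enzyme for full effect; nearly all actives have a fitted effect of over 40% in size; top concentration of the series not given in the record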
Target sequence (P25779 123-467 limits assumed): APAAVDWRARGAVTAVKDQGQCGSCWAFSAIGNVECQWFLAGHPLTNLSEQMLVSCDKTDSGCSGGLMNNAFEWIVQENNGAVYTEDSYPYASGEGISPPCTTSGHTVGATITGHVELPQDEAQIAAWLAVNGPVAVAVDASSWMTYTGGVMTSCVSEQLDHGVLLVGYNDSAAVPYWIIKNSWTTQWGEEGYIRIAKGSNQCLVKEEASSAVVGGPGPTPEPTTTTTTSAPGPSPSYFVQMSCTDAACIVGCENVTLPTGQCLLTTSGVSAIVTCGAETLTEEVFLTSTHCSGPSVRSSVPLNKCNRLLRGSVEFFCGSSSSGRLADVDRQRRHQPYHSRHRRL
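Detergent-containing run (0.01% Triton X-100) in acetate buffer pH 5.5 with 5 mM DTT: enzyme at 1.5 nM final, 15 min compound preincubation at room temperature, then 2 uM Z-FR-AMC substrate. Activity taken as 60 s fluorescence increase at 360/450 nm.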
Cruzain inh noDet: inhibitors of Trypanosoma cruzi cruzain without detergent; purified cruzain, Z-FR-AMC fluorescence, no detergent; Potency, µM, for the others: max response, negative = inhibition, usual class: inhibitors; 200,000 tested, 2.3% active; active = well fitted curve in the direction sought with a large enough effect; inconclusive = small, poorly fitted or top-dose-only effect, or another doubt; inactive = no such curve, though single readings can be large; an effect the other way counts as inactive or inconclusive;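 also: plate controls were enzyme without inhibitor for no effect and buffer without enzyme for full effect; nearly all actives have a fitted effect of over 40% in size; top concentration of the series not given in the record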
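Purified cruzain at 1.5 nM, pre-incubated 15 min with compound at room temperature in 100 mM sodium acetate pH 5.5, 5 mM DTT, 0.00005% Triton X-100. Reaction started with 2 uM Z-FR-AMC; AMC fluorescence increase over 60 s gives rate.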
NS1 function inh: inhibitors of influenza NS1 protein function; Potency, µM (highest dose often 46.1 µM), without a hit: at the top dose activity, positive = more growth; 270,000 tested, 0.4% active; S. cerevisiae slowed by influenza A NS1, growth recovery by OD600; also: actives are rising curves; nearly all actives have a fitted effect of over 50% in size
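Read-out: OD600 growth recovery of NS1-expressing budding yeast. Cells grown overnight at 30C in -URA glucose medium, washed, resuspended and diluted 1:100 in 2% galactose assay medium, pH 6.0. Same strain lacking NS1 served as positive control.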
* = called active by the depositor; ? = inconclusive; / = not tested or not shown; & = joins results of further samples; [ ] = dose if it differs, or a comment. Unless noted, calls follow the shape of the dose curve; as a rule, active means well fitted rising curve with a large enough effect; inconclusive means small, poorly fitted or top-dose-only effect; inactive means no such curve, though single readings can be large or run the other way. Potency is read from the fitted curve at half-maximal effect.

SMILES	Marburg entry inh	2A StopGo	LASV entry inh	RE007 growth inh	SARS PLP yeast	Cruzain Triton	Cruzain inh noDet	NS1 function inh
O=C(/C=C/c1ccco1)NCc1ccccn1	/	9.2%	/	-7.2%	3.3%	/	/	-0.8%
COc1ccc(NC(=O)C2OCCc3ccccc32)c(OC)c1 (stereo not given)	14.1%	3.9%	-4.9%	3.6%	-3.9%	-2.0%	-10.2%	-22.6%
Cc1cc(C(=O)N2CCCC(N3CCN(c4cccc(C(F)(F)F)c4)CC3)C2)n[nH]1 (stereo not given)	-26.7%[46.1 µM]	-29.6%	-24.3%[46.1 µM]	-27.3%	-2.8%	/	/	-2.9%
Cc1cnc(C(=O)OCC(=O)Nc2ccc(Cl)cc2Cl)cn1	1.6%	-20.3%	14.5%	-21.6%	-12.5%	0.6%	-17.8%	0.3%
O=C(CCC(=O)N1C[C@H]2C[C@@H](C1)c1cccc(=O)n1C2)NCc1ccccc1	/	-18.6%	/	7.2%	-3.6%	/	/	2.9%
Cc1oc(-c2cccc(Cl)c2)nc1CN1CCC(C(=O)NCCCN2CCN(c3ccccc3F)CC2)CC1	16.9%[46.1 µM]	?	-9.1%[46.1 µM]	/	/	-0.8%	0.0%	/
Cc1ccc(-c2csc(NC(=O)CN3CCOCC3)n2)cc1C	5.3%[46.1 µM]	-12.6%	?	-29.5%	0.6%	/	/	-1.9%
COc1ccc(CCNC(=O)COC(=O)c2cc(OC)c(OC)cc2OC)cc1OC	-5.0%[46.1 µM]	-10.4%	3.0%	3.3%	0.5%	/	/	/
O=C(c1cc(-c2cccc(Cl)c2)on1)N1CCc2ccccc2C1	-13.8%[46.1 µM]	-15.2%	-11.4%	6.3%	1.1%	/	/	1.1%
CC(=O)c1cnn(-c2c(Cl)cc(Cl)cc2Cl)c1C	/	-11.0%	/	29.0%	0.6%	/	/	1.6%
CC(=O)Nc1ccc(-c2csc(NNC(=O)c3ccc(C)cc3)n2)cc1	/	5.5%	/	7.7%	1.5%	/	/	6.3%
CCOc1ccccc1CNS(=O)(=O)c1csc(C(N)=O)c1	-1.6%&-1.6%[46.1 µM]	28.8%&41.3%	-4.4%&10.8%[46.1 µM]	0.8%	2.6%	0.8%	-12.2%	-7.6%
Cc1ccc(C(=O)/C=C/N(C)C)o1	5.5%[46.1 µM]	5.0%	-0.5%[46.1 µM]	-25.1%	-0.4%	/	/	-0.8%
CCc1nc(SCc2ccc(Cl)cc2)n[nH]1	-25.2%	54.6%[activator]	15.5%	0.3%	-0.6%	/	/	-5.3%
N/C(=N\OC(=O)c1ccc2ccccc2c1)c1ccc(Br)cc1	?	18.7%	9.9%	-1.7%	10.1%	-1.6%	10µM*	2.5%
Cc1cc(C)cc(Oc2nc3c(c(=O)n(C)c(=O)n3C)n2Cc2ccc(F)cc2)c1	3.5%[46.1 µM]	-24.1%	-16.2%[46.1 µM]	/	/	-0.3%	1.3%	/
COc1ccc(Cn2c(O)c(/C=N/NC(=O)c3ccccc3O)c(=O)[nH]c2=O)cc1	2.4%[46.1 µM]	0.1%	-2.2%	-7.6%	10µM*	-7.1%	9.8%	20.0%
Cc1ccc(C(CC(=O)N2CCCCC2)c2ccccc2)c(O)c1C (stereo not given)	/	48.3%[activator]	/	14.9%	-2.7%	/	/	-6.8%
COC(=O)C1=C(C)NC(=S)N(C(C)=O)C1c1ccccc1 (stereo not given)	0.0%	-22.6%	-13.5%	6.6%	-6.6%	-7.4%	-6.7%	-2.3%
O=C(NCc1ccncc1)C(=O)NCC(c1ccco1)N1CCN(c2ccccc2F)CC1 (stereo not given)	-20.4%	0.0%	4.5%	1.6%	-6.7%	-0.7%	-5.2%	-4.1%
O=C(C1CCC1)N1CCc2cc(S(=O)(=O)NC3CCCC3)ccc21	-15.4%	25.5%	?	9.9%	0.5%	3.0%	-9.8%	-0.6%
Cc1ccc(NC2=NC3(CCCCC3)N=C(N)N2)c(C)c1	3.1%	-9.7%	6.1%	-1.0%	5.5%	8.4%	-4.0%	-5.2%
COc1ccc(OC)c(S(=O)(=O)NC2CC(=O)N(c3ccc(C)c(C)c3)C2)c1 (stereo not given)	-22.9%	22.0%	13.6%	-4.5%	-1.7%	/	/	/
CC1CCCC(C)N1C(=O)c1cc(-c2cccs2)on1 (stereo not given)	11.7%	113.5%[activator]	49.9%[14.3 µM]	14.5%	22.0%	-7.4%	-29.5%	3.4%
Cc1cc(NS(=O)(=O)c2ccc(NC(=O)COc3ccc(Cl)cc3)cc2)nc(C)n1	-2.1%[46.1 µM]	40.6%[activator]	-5.4%[46.1 µM]	/	/	-7.8%	2.3%	/

Record cards, from the list above:
Cc1ccc(NC2=NC3(CCCCC3)N=C(N)N2)c(C)c1 reads Marburg entry inh: 3.1%; 2A StopGo: -9.7%; LASV entry inh: 6.1%; RE007 growth inh: -1.0%; SARS PLP yeast: 5.5%; Cruzain Triton: 8.4%; Cruzain inh noDet: -4.0%; NS1 function inh: -5.2%
Cc1ccc(-c2csc(NC(=O)CN3CCOCC3)n2)cc1C reads Marburg entry inh: 5.3%[46.1 µM]; 2A StopGo: -12.6%; LASV entry inh: ?; RE007 growth inh: -29.5%; SARS PLP yeast: 0.6%; Cruzain Triton: /; Cruzain inh noDet: /; NS1 function inh: -1.9%

A draw from above in order of formula weight, highest first:
SMILES	Marburg entry inh	2A StopGo	LASV entry inh	RE007 growth inh	SARS PLP yeast	Cruzain Triton	Cruzain inh noDet	NS1 function inh
Cc1cc(C(=O)N2CCCC(N3CCN(c4cccc(C(F)(F)F)c4)CC3)C2)n[nH]1 (stereo not given)	-26.7%[46.1 µM]	-29.6%	-24.3%[46.1 µM]	-27.3%	-2.8%	/	/	-2.9%
N/C(=N\OC(=O)c1ccc2ccccc2c1)c1ccc(Br)cc1	?	18.7%	9.9%	-1.7%	10.1%	-1.6%	10µM*	2.5%
CCc1nc(SCc2ccc(Cl)cc2)n[nH]1	-25.2%	54.6%[activator]	15.5%	0.3%	-0.6%	/	/	-5.3%

The results go on:
SMILES	Marburg entry inh	2A StopGo	LASV entry inh	RE007 growth inh	SARS PLP yeast	Cruzain Triton	Cruzain inh noDet	NS1 function inh
O=C(NCc1nnc(SCC(=O)N2CCCc3ccccc32)o1)c1ccco1	8.2%	-5.0%	3.5%	7.2%	1.4%	/	/	/
CCOC(=O)CC1=CCc2c1ccc(OC)c2OC	15.2%	30.2%[activator]	1.2%	-7.6%	/	/	/	/
COc1cc(C2C(C(=O)OC(C)C)=C(C)Nc3[nH]c(=O)[nH]c(=O)c32)ccc1O (stereo not given)	18.4%	-25.7%	9.6%	-2.6%	1.6%	-3.7%	-12.9%	8.4%
COc1cccc(C(=O)N2CCN(c3ccc(N4CCOCC4)nn3)CC2)c1	?	-4.5%	15.5%	-16.5%	28.8%	/	/	/
Cc1nc(C)c(-c2ccccc2)c(=O)[nH]1	?	-5.9%	4.6%	5.5%	5.6%	5.6%	-3.8%	-2.1%
CCOc1ccc(-c2nonc2NC(=O)COc2c(C)cc(C)cc2C)cc1OCC	17.6%[46.1 µM]	-11.5%	1.8%[46.1 µM]	/	/	-9.0%	-16.7%	/
Cc1ccc2nc(-c3c[nH]c4ccccc34)c(Nc3ccccc3)n2c1	?	20.6%	6.0%[46.1 µM]	/	/	-15.0%	1.5%	/
O=C(CN1C(=O)C2CC=CCC2C1=O)Nc1ccc(Br)cc1 (stereo not given)	3.8%	-7.0%	-14.4%	-26.2%	?	/	/	8.0%
CC1CCc2c(sc(NC(=O)C3CCCO3)c2C#N)C1 (stereo not given)	-3.3%	35.0%[activator]	?	-20.3%	0.9%	/	/	/
CCN(CCCn1c(SCC#N)nc2ccccc2c1=O)c1ccccc1	9.2µM*	?	?	6.7%	-3.1%	1.0%	6.6%	-12.1%
CCCCCn1c(CNC(C)=O)nc2ccccc21	11.2%	-4.7%	12.0%	-2.2%	-2.2%	1.0%	-3.5%	1.7%
O=C(Nc1cc(Cl)ccc1O)C1CC(c2ccccc2O)=NO1 (stereo not given)	3.7%	20.7%	4.3%	36.7%	-10.2%	/	/	-52.8%
Cc1ccccc1NC(=S)N/N=C/c1ccc(O)cc1O	?	16.4%	?	9.1%	1.5%	/	/	-2.6%
Cc1cc(NS(=O)(=O)c2ccc(NC(=S)NC(=O)c3ccncc3)cc2)no1	-6.0%[46.1 µM]	37.0%	11.8%	10.2%	-0.6%	/	/	-0.1%
CCCSc1ncc(Cl)c(C(=O)Nc2ccc(S(=O)(=O)N3CCC(C)CC3)cc2)n1	?	-7.4%	?	/	/	-3.0%	-22.1%	/
COCCCNC(=O)Cn1cnc2sc(C)c(S(=O)(=O)N3CC(C)CC(C)C3)c2c1=O (stereo not given)	?	2.8%	-0.3%	-1.5%	3.5%	/	/	8.3%
Cc1ccc(N2CC(C)Cn3c2nc2c3c(=O)[nH]c(=O)n2C)cc1C (stereo not given)	?	-24.6%	9.3%	3.4%	-2.2%	/	/	2.7%
O=C(CN(C(=O)CNS(=O)(=O)c1ccc(F)cc1)c1ccccc1F)NCc1ccco1	-3.6%[46.1 µM]	-5.7%	/	16.6%	2.0%	/	/	3.8%
O=C(Cc1cccs1)NCC1CCCO1 (stereo not given)	7.5%	/	4.0%	-0.5%	0.9%	-2.7%	4.8%	-6.0%
CC1=CCC2C(=O)N(c3ccc4ccccc4n3)C(=O)C2C1 (stereo not given)	5.0%&5.0%	12.8%	12.1%	-13.1%	0.4%	-2.4%	1.4%	0.3%
Cc1cc(C)c(N2CCN(S(=O)(=O)N3CCCCCC3)CC2)c(C)c1	?	0.0%	-12.5%	-7.8%	-22.2%	-2.3%	-3.2%	-31.3%
CCC(C)NC(=O)c1cn(CC)c2ccc(S(=O)(=O)N3CCCCCC3)cc2c1=O (stereo not given)	-16.4%[46.1 µM]	-11.7%	2.2%[46.1 µM]	-1.3%	0.7%	/	/	9.8%
